UUG fidelity = modulators of start codon recognition fidelity in yeast | S. cerevisiae UUG-firefly luciferase reporter, luminescence/redox ratio | activity score, % at 18.7 µM | 350,000 compounds, 0.13% hits | AID 602363;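 active = replicate mean at a twofold rise or more, about +100% in these data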;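 note: firefly luciferase made from a UUG start codon reports start codon fidelity; reporter light over untreated wells divided by growth signal over untreated wells; some hits fall short of that in this replicate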
CSC inhib = cancer stem cell inhibition. cancer stem cell-like cells viability, luminescence. 300,000 compounds, 1.1% hits. inhibition, % at 7.5 µM. AID 2717;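 active = mean at 75% or more and at least half the replicates too; inconclusive = mean and replicates disagree; tested in HMLE shEcad cells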;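 note: 0% = median of negative and 100% = median of positive control wells; the first replicate is given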
MT1-MMP act inh = inhibitors of human MT1-MMP activation; P50281; AID 651647; HT1080 RFP-PRO-GFP cells, GFP/RFP ratio fluorescence, overnight; percent of plate control window, DMSO zero; GFP/RFP ratio change, % at 20 µM; 360,000 compounds, 0.061% hits;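 active = GFP/RFP ratio change of at least 30% with cell ATP level not reduced by more than half and red fluorescence within 50% of control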; note: strong numbers were not always called active
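system = RFP-PRO-GFP reporter HT1080 cells | dosing = 20 µM single dose, 1% DMSO | timing = overnight cell settling, then overnight compound exposure, 37 °C, 5% CO2 | read-out basis = GFP/RFP fluorescence ratio | controls = DMSO and RFP-L50D-GFP cell wells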
Rce1 inh = yeast Ras-converting enzyme inhibition | calls only | yeast membranes, quenched prenylated peptide cleavage fluorescence | 290,000 compounds, 0.27% hits;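 active = fall in fluorescence gain of 50% or more versus controls, with final raw signal at or below 3038400; inconclusive = same 50% fall but final raw signal above 3038400; inactive = fall in fluorescence gain under 50%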;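 note: plate controls were neutral control wells for no effect and wells lacking membranes for full effect; tested at 10 µM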
Target sequence (Q03530 whole entry, looked up): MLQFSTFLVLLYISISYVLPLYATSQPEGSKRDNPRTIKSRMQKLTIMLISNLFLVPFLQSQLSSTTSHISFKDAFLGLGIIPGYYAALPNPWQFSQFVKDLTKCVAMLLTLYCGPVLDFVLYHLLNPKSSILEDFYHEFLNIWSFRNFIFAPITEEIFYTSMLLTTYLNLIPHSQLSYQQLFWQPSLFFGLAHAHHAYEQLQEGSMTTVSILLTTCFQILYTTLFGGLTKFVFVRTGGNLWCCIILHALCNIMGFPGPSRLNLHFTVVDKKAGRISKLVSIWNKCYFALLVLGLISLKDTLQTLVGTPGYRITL
Env fusion inh = inhibitors of HIV Env-mediated cell fusion | HeLa-JRFL Env/CEM21 cell fusion, luciferase | inhibition, % at 12.3 µM | 360,000 compounds, 1.1% hits | AID 651610;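 active = mean replicate inhibition score of at least 50 and every replicate individually at or above 50; inconclusive = only one of the two criteria met; inactive = mean below 50 and not all replicates reaching 50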;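 note: 0% = plate neutral controls and 100% = maraviroc near 300 nM; one replicate is shown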
eIF4H inh = inhibitors of RNA binding by human eIF4H; Q15056; eIF4H fluorescence polarization binding assay; inhibition, % at 35 µM; 290,000 compounds, 0.94% hits;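 active = 50% or more with normal probe brightness, or confirmed in later tests; inconclusive = above 50% with abnormal brightness, or retests that disagree; inactive = below 50% or failed in later tests; about a fifth of its hits are not listed in these tables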;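 note: calls also rest on retests at 20 µM and on dose response follow-up; 0% = protein and probe with vehicle and 100% = probe without protein; strong numbers were not always called active; many hits fall short of the cut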
PABP FP inh = PABP-poly(A) binding inhibition; P11940; AID 2014; inhibition, % at 35 µM; 290,000 compounds, 1% hits; PABP-poly(A) RNA binding, fluorescence polarization;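 active = 50% or more with normal probe brightness, or confirmed in later tests; inconclusive = above 50% with abnormal brightness, or retests that disagree; inactive = below 50% or failed in later tests; about a fifth of its hits are not listed in these tables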;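 note: calls also rest on retests at 20 µM and on dose response follow-up; controls were probe without protein and protein plus probe with vehicle; some compounds called inactive have numbers as strong as hits; many hits fall short of the cut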
Target sequence (P11940 whole entry, looked up): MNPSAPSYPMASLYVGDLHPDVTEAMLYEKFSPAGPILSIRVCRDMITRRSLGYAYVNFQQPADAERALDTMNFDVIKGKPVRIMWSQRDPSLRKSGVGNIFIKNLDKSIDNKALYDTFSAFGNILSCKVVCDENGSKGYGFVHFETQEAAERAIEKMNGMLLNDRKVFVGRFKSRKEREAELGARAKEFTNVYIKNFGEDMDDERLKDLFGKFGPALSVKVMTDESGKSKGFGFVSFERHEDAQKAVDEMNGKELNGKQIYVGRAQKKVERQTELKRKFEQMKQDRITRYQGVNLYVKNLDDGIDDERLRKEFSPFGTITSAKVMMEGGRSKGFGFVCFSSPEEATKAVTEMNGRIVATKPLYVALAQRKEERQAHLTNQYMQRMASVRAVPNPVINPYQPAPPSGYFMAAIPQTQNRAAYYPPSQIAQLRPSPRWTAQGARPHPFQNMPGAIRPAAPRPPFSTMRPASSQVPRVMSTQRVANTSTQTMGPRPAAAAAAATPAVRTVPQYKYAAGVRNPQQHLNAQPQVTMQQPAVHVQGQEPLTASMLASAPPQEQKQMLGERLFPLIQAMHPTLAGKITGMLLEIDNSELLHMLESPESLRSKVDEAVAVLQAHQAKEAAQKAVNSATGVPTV
MT1-MMP act inh RFP = further read-out of MT1-MMP act inh, marked with its call; RFP signal change, %; measured here: RFP expression control read;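 0 = vehicle wells; hits needed this value within 50% of zero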
An asterisk follows results filed as active; i = inactive; ? = inconclusive; nt = no result given.

Molecule,UUG fidelity,CSC inhib,MT1-MMP act inh,MT1-MMP act inh RFP,Rce1 inh,Env fusion inh,eIF4H inh,PABP FP inh
O=C(NCc1ccc(Cl)cc1)c1ccc(CS(=O)Cc2cccc(Cl)c2)o1 (stereo not given),-13,-8,1,-5,i,5,-5,2
Cc1nc(C)c(C(=O)NNS(=O)(=O)c2ccc([N+](=O)[O-])cc2)s1,nt,-11,0,2,i,2,1,-6
CC(C)(C)c1ccc(C(=O)Nc2ccc(NC(=O)c3ccco3)cc2)cc1,-18,nt,6,-4,i,32,8,12
O=C1C(=O)N(CCc2c[nH]c3ccccc23)C(c2cccnc2)/C1=C(/O)c1ccccc1 (stereo not given),nt,-6,nt,nt,i,nt,-4,16
O=C(O)C1=C[C@H](c2ccc(F)cc2)C[C@H](OCCCCO)O1,-19,-21,-1,2,i,6,-1,6
O=C(N/N=C/C(Br)=C/c1ccccc1)c1cccs1,nt,53,3,-5,i,-233,-4,10
CCOC(=O)C1=C(CN2CCCCCC2)NC(=O)NC1c1ccc2c(c1)OCO2 (stereo not given),nt,-7,2,2,i,18,-10,16
CC(=O)Oc1ccc2ccc(=O)oc2c1,-17,0,0,5,i,nt,19,8
COc1ccc(CNC(=O)OCCN2CCN(S(=O)(=O)c3ccc(C)cc3)CCC2=O)cc1,-3,-4,5,0,i,0,0,3
COC/C=C/C1=CC2=CC(=O)C(C)(OC(=O)c3cnc4ccccc4n3)C(=O)C2=CN1CC(C)C (stereo not given),-22,25,3,3,i,nt,nt,nt
c1ccc(-c2n[nH]c(-c3ccccn3)n2)cc1,-6,6,3,3,i,nt,-27,7
CCc1ccccc1Nc1nc2ccccc2n1C(C)C,-10,-10,1,0,i,0,-5,6
CCNC(=O)C(=O)N1CCC2(CC1)OCCN2S(=O)(=O)c1ccc(C)cc1,nt,-6,2,3,i,-34,nt,nt
COc1cccc(NC(=O)CN(C)C(=O)c2cc(S(=O)(=O)Nc3ccccc3OC)ccc2C)c1,-30,nt,-2,-1,nt,11,nt,nt
Cc1ccc(-c2nc(CN3CCN(C(=O)C4CCCO4)CC3)cs2)cc1 (stereo not given),18,2,-3,-20,i,-1,-7,-4
O=C(OCc1cccc(Cl)c1)c1cc([N+](=O)[O-])ccc1N1CCOCC1,-10,nt,-5,-8,i,-273,nt,nt
CCn1cc(C(=O)Nc2ccc(Cl)cc2Cl)cn1,-8,4,2,3,i,-14,nt,nt
CCOC(=O)C1CCN(C(=O)Cn2cnc3sc(C)c(S(=O)(=O)N4CCCCC4)c3c2=O)CC1,3,22,-2,2,i,2,-4,0
Cc1[nH]n(-c2ccc(Cl)cc2)c(=O)c1C=NC12CN3CN(CN(C3)C1)C2,nt,10,4,6,i,nt,-4,1
CCN(CC)S(=O)(=O)c1ccc(OC)c(NC(=O)CCc2c(C)noc2C)c1,-10,nt,5,4,nt,8,nt,nt

Reformatted: results already given
Cc1nc(C)c(C(=O)NNS(=O)(=O)c2ccc([N+](=O)[O-])cc2)s1
  UUG fidelity: nt
  CSC inhib: -11
  MT1-MMP act inh: 0
  MT1-MMP act inh RFP: 2
  Rce1 inh: i
  Env fusion inh: 2
  eIF4H inh: 1
  PABP FP inh: -6

CC(C)(C)c1ccc(C(=O)Nc2ccc(NC(=O)c3ccco3)cc2)cc1
  UUG fidelity: -18
  CSC inhib: nt
  MT1-MMP act inh: 6
  MT1-MMP act inh RFP: -4
  Rce1 inh: i
  Env fusion inh: 32
  eIF4H inh: 8
  PABP FP inh: 12

O=C1C(=O)N(CCc2c[nH]c3ccccc23)C(c2cccnc2)/C1=C(/O)c1ccccc1 (stereo not given)
  UUG fidelity: nt
  CSC inhib: -6
  MT1-MMP act inh: nt
  MT1-MMP act inh RFP: nt
  Rce1 inh: i
  Env fusion inh: nt
  eIF4H inh: -4
  PABP FP inh: 16

O=C(O)C1=C[C@H](c2ccc(F)cc2)C[C@H](OCCCCO)O1
  UUG fidelity: -19
  CSC inhib: -21
  MT1-MMP act inh: -1
  MT1-MMP act inh RFP: 2
  Rce1 inh: i
  Env fusion inh: 6
  eIF4H inh: -1
  PABP FP inh: 6

The list continues:
Molecule,UUG fidelity,CSC inhib,MT1-MMP act inh,MT1-MMP act inh RFP,Rce1 inh,Env fusion inh,eIF4H inh,PABP FP inh
O=C(Nc1ccc2c(c1)nc1n2CCCCC1)c1cc(S(=O)(=O)N2CCOCC2)ccc1Cl,-11,-2,6,-16,i,nt,-7,6
COc1ccccc1N1C(N)=NC(N)=NC12CCCCC2,-5,-3,-4,0,i,5,2,-3
CCOC(=O)c1ccc(NC(=O)c2ccnn2C)cc1,-8,0,7,3,i,-8,nt,nt
CC1=C(C(=O)OCc2ccc3c(c2)OCO3)C(c2ccc(Cl)cc2)NC(=O)N1 (stereo not given),4,nt,-17,-18,i,nt,-8,0
CCCNC(=O)c1onc(CSc2ccccc2)c1C(=O)NCCC,-12,-12,4,7,i,-33,nt,nt
CC1(C(=O)NC2CCCC2)CCC(=O)N1Cc1ccc2c(c1)OCO2 (stereo not given),-10,-5,5,4,i,-55,-8,-10
CCOc1ccc(S(=O)(=O)Nc2ccc(C(=O)NCC(c3ccco3)N3CCCCC3)cc2)cc1 (stereo not given),1,-12,0,-1,i,0,nt,nt
O=C(Cn1c(=O)oc2ccccc21)N1CCN(c2ccc(N3CCOCC3)nn2)CC1,-17,-11,3,3,i,-4,-13,6
O=C(CNC(=O)c1ccco1)NNC(=O)c1ccc(Br)cc1,-7,6,-1,4,nt,nt,nt,nt
Brc1ccccc1OCCOCCOc1cccc2cccnc12,-5,5,0,1,i,nt,-8,-8
Cc1cc(Cl)ccc1C(=O)C1CCCN(C(=O)c2ccoc2)C1 (stereo not given),-7,3,-2,1,i,27,3,7
COc1ccc(NC(=S)Nc2ccc3nsnc3c2)cc1,7,11,-10,-8,i,-53,13,0
Cc1cc([N+](=O)[O-])nn1CC(=O)N1CCOCC1,-21,9,7,6,i,-5,4,-3
Cc1ccc(NC(=S)Nc2cccc(S(=O)(=O)Nc3c(C)n(C)n(-c4ccccc4)c3=O)c2)cc1,-20,nt,1,0,i,5,-4,-10
Cc1ccn(C(CC(=O)c2ccc(Br)cc2)C(=O)O)n1 (stereo not given),-25,-6,5,3,i,14,-9,-2
CCC1(C)NC(=O)N(CC(=O)NCC(=O)Nc2c(C)cc(C)cc2C)C1=O (stereo not given),-6,5,6,1,nt,nt,nt,nt
Cc1ccc(S(=O)(=O)Nc2ccc3c4c(cccc24)CC3)c(C)c1,0,52,-7,-18,i,nt,nt,nt
Cc1cccc(OCCC(=O)OCC(=O)N2CCc3ccccc32)c1,-36,2,2,7,i,-215,0,-3
Cc1ccc(Oc2ncnc3sccc23)cc1,nt,2,3,3,i,-143,-1,47
Cc1c(Br)c(=O)oc2c(Br)c(O)ccc12,-6,nt,-2,-4,i,8,-6,-4
C=CCN(c1ccccc1)S(=O)(=O)c1ccc2[nH]cc(C(=O)NCCOC)c(=O)c2c1,-2,1,1,-5,i,8,1,17
Cc1cc(=O)[nH]c(N/N=C/c2cc(C)n(-c3ccccc3)c2C)n1,-7,1,-1,5,i,-31,-3,1
COc1ccccc1NC(=O)CCCN1C(=O)C(c2ccccc2)Oc2cccnc21 (stereo not given),-2,0,2,3,i,16,-5,-10
CCC(=O)Oc1ccc(C(=O)Nc2ccc3c(c2)OCO3)cc1,nt,12,5,5,i,-74,1,1
Cc1cc(C)n2nc(S(=O)(=O)NC(C)(C)C)nc2n1,-22,3,0,3,i,-1,-4,-13
Cc1cc2cc(CN(Cc3cccs3)C(=S)NCC3CCCO3)c(=O)[nH]c2cc1C (stereo not given),-2,-8,-4,-4,i,23,-10,2
O=C(C(NS(=O)(=O)c1cccc2nsnc12)c1ccccc1)N1CCN(c2ccccc2)CC1 (stereo not given),0,-10,-1,-4,i,nt,5,3
COc1ccc(S(=O)(=O)N(CC(=O)NCCCN(C)C)c2ccc(C)cc2)cc1OC,-4,3,0,2,i,nt,-5,-2
C=CCNC(=O)C1CC(=O)N(c2ccc(OCc3ccc(F)cc3)cc2)C1 (stereo not given),-22,0,3,1,i,-23,-12,-3
OC1(C(F)(F)F)CC(c2ccc3ccccc3c2)=NO1 (stereo not given),nt,0,2,2,i,-11,3,2
CC(C)c1ccc2c(c1)C(=O)NC(C)(C)C2,-17,-1,0,3,i,-14,-5,5
Cc1cc(NC(=O)CSc2cn(C)c3ccccc23)no1,-1,3,0,1,i,4,-5,1
C#CCOCCOCCOCCNc1nc(N2CCN(C(=O)[C@H]([C@@H](C)CC)n3cc([C@@H](N)CC(C)C)nn3)CC2)nc(N2CCN(C(=O)[C@H](Cc3cc4ccccc4[nH]3)n3cc([C@@H](N)Cc4ccc(O)cc4)nn3)CC2)n1,nt,-6,nt,nt,i,nt,?,41
CC1(C)C(CSc2nc3ccccc3[nH]2)C1(Cl)Cl (stereo not given),nt,13,-1,-1,i,19,2,-6
COc1ccc(-c2cc3nc(C4CCN(C(=O)OC(C)(C)C)CC4)c(C(=O)O)cn3n2)cc1,-21,7,-1,-4,i,nt,-1,2
COc1ccccc1NC(=O)COc1ccc(/C=N/NC(=O)c2cccnc2)cc1,-15,-1,7,1,i,16,-11,-1
O=C(NC1c2ccccc2-c2ccccc21)N1CCCCC1,-6,nt,-36,-11,i,nt,-1,2
S=c1nccc(-c2ccc(Cl)cc2)[nH]1,-23,-3,-1,3,i,-33,-14,2
CC(=O)N1CCN(Cc2nc3cc(NC(=O)NC4CCCCC4)ccc3n2C)CC1,-19,nt,3,3,i,-12,-2,6
COc1ccc(/C=C2/SC(=S)N(CCCC(=O)Nc3cccc(O)c3)C2=O)cc1,-8,nt,nt,nt,i,2,-11,-7
COc1ccc2oc(C(=O)OCc3nnc(-c4ccccc4)o3)c(C)c2c1,nt,-1,20,1,i,-2,nt,nt
CC(C)Sc1nc2ccccc2n1CC(=O)O,nt,7,3,4,i,3,-2,-8

Screening data (PubChem BioAssay)

An excerpt. The share of hits here may be higher or lower than overall.
